rRNA inh HTS: inhibits bacterial ribosomal RNA function over humanized ribosomes; E. coli WT GFP vs humanized-ribosome RFP mutants, fluorescence, 24 h; active compounds read low; DMSO median 0, no signal -100; GFP signal change (wild-type ribosome), % (concentration not given with the values); 1.6% of 350,000 active; AID 720706;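 active means significant combined selectivity score with lowered wild-type GFP, culture density cut under 30%, mutant RFP and density less affected; inactive means any of these conditions unmet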; further: one replicate is shown; some compounds called inactive have numbers as strong as hits
FGF22 binding: shifts melting point of recombinant human FGF22; Q9HCT0; 1.5% of 340,000 active; calls only at 9.99 µM; recombinant FGF22 thermal shift, SYPRO orange fluorescence; percent of sucrose octasulfate shift, DMSO zero; AID 651658;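 active means melting point raised past a set limit in the mean and every replicate; three in four hits are not shown here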
Target sequence (Q9HCT0 whole entry, looked up): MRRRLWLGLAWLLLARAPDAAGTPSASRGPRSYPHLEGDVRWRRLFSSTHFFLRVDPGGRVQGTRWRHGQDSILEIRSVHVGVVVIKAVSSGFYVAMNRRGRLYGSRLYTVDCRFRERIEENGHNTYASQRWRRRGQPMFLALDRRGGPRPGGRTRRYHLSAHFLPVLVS
MLL AF4-AF9 inh: MLL-AF4/AF9 protein interaction inhibition | AlphaScreen, biotin-AF4 peptide binding to FLAG-AF9 | inhibition, % at 10 µM | 0.47% of 350,000 active;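 active means every replicate reaching a set inhibition limit, whatever the replicate mean, cut at about 25% in these data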;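 further: 0% = plate neutral control median and 100% = total signal loss; the record names both 10 and 1 µM as test concentration; the first replicate is given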
Target sequence (P42568 whole entry, looked up): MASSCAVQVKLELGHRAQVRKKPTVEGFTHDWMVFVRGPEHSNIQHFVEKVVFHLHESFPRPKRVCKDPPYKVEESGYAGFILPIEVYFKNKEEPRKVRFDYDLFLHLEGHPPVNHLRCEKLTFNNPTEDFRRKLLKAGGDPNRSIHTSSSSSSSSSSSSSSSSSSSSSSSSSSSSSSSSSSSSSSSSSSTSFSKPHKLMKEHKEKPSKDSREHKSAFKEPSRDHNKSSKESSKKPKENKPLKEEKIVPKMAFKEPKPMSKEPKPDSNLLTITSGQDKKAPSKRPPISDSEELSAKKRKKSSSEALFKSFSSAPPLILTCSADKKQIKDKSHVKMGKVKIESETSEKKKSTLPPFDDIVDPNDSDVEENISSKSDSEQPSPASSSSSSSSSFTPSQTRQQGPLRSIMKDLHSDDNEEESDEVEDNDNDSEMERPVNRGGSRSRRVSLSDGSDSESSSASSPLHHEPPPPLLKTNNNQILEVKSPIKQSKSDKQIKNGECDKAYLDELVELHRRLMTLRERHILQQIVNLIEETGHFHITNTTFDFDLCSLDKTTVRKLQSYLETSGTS
rRNA inh HTS OD600: recorded beside rRNA inh HTS, whose call it bears; OD600 change, %; measured here: OD600 growth;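 optical density of the mix in the first replicate; 0 = DMSO median and -100 = no signal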
rRNA inh HTS RFP: further read-out of rRNA inh HTS, marked with its call; RFP signal change, %; measured here: RFP humanized mutant strains;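 first replicate; 0 = DMSO median and -100 = no signal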
The depositor's hits bear a star; i = inactive. An excerpt; rates above refer to the full screens.

SMILES	rRNA inh HTS	rRNA inh HTS OD600	rRNA inh HTS RFP	FGF22 binding	MLL AF4-AF9 inh
O=C(C[C@@H]1CC[C@@H]2[C@H](COC[C@@H](O)CN2CC2CCOCC2)O1)N1CCOCC1	6	11	-1.6	i	-9.0
Cc1ccc(S(=O)(=O)Nc2ccc3c(c2)C(=O)N([C@@H](C)CO)C[C@@H](C)[C@@H](CN(C)CC2CC2)O3)cc1	8	11	-3.4	i	1.7
OC(c1ccc(F)cc1)c1nc(-c2cc3ccccc3o2)cs1 (centres undefined)	-45	-60	-18	i	-0.1
CN(C)C(=O)c1cccc(-c2ccc3n(c2=O)C[C@H]2N[C@@H]3[C@@H](C(=O)NC3CCC3)[C@@H]2CO)c1	4	5	-1.4	i	-0.9
O=C(Nc1ccc(F)cc1)N[C@H]1CC[C@@H](CCn2cc(-c3ccc(F)cc3)nn2)O[C@@H]1CO	2	2	-1.6	i	-17
CO[C@@H](CN(C)C(=O)c1cnccn1)[C@@H](C)CN([C@@H](C)CO)S(=O)(=O)c1ccc(C)cc1	1	22	-1.1	i	-0.5
C[C@H](CO)N1C[C@H](C)[C@@H](CN(C)Cc2ccccc2)Oc2c(NC(=O)Nc3ccc(C(F)(F)F)cc3)cccc2C1=O	-3	-2	-0.5	i	1.6
C[C@@H](NC(=O)C[C@H]1CC[C@H](NC(=O)C2CCOCC2)[C@H](CO)O1)c1ccccc1	-1	-2	-1.3	i	0.1
CC(C)CC#Cc1ccc([C@H]2[C@@H](CO)N3CCCCN(S(=O)(=O)Cc4ccccc4)C[C@H]23)cc1	-21*	-13*	-2.1*	i	14
Cc1nc(NC(=O)C(C)(C)C)sc1C(=O)Cn1cc(CCCC#N)nn1	3	11	-4.1	i	-1.9
CCOc1ccc(NC(=O)C2CCCN(S(=O)(=O)c3ccc4c(c3)C(C)(C)C(=O)N4C)C2)cc1 (centres undefined)	-10	-11	1.7	i	9.9
C[C@@H]1CN([C@@H](C)CO)C(=O)Cc2cc(NS(=O)(=O)c3cccs3)ccc2O[C@H]1CN(C)C(=O)Nc1ccc(C(F)(F)F)cc1	-4	-11	1.2	i	-0.3
CCC(=O)N1C[C@H](C)[C@H](OC)CN(C)C(=O)c2ccc(NC(=O)NC(C)C)cc2OC[C@@H]1C	-1	2	-0.7	i	-2.0
CCO/C(C)=N/Oc1cnc2ccccc2c1	5	2	-0.7	i	-0.4
CCCCNC(=O)C(NC(=O)c1ccc(=O)[nH]c1)C(=O)c1ccccc1 (centres undefined)	26	18	-0.8	i	0.8
O=C(C[C@H]1C[C@@H]2c3cc(NC(=O)NC4CCCC4)ccc3O[C@@H]2[C@@H](CO)O1)NCc1ccccc1	-4	-11	-1.1	i	-0.7
Cc1ccccc1S(=O)(=O)N1C[C@H]2CON(C)[C@H]2C[C@H]1c1cccc(Oc2ccccc2)c1	-9	-18	-4.2	i	-3.3
O=C(/C=C/c1cccc([N+](=O)[O-])c1)OCC(=O)N1CCCCC1	-9	7	-5.8	i	3.1
CN(C)CC(=O)N1[C@H](CO)[C@@H](c2ccccc2)C12CN(Cc1cc(F)ccc1F)C2	0	0	0.1	i	4.8
C[C@H](CO)N1C[C@H](C)[C@H](CN(C)C(=O)Cc2ccccc2)OCCCC[C@H](C)Oc2ccc(NS(=O)(=O)c3cn(C)cn3)cc2C1=O	1	-2	-1.3	i	-0.7
COCC#Cc1cnc2c(c1)C(=O)N([C@H](C)CO)C[C@H](C)[C@@H](CN(C)Cc1ccccc1F)O2	2	9	-0.5	i	-1.0
CCCCCCCCN1C(=O)[C@H](CC(=O)NCc2cccc3ccccc23)C[C@@]2(C(=O)OCC)CCCC=C12	8	15	2.0	i	-2.3
Cc1ccc(S(=O)(=O)N(C)C[C@H]2OCc3ccccc3-c3ccccc3C(=O)N([C@H](C)CO)C[C@H]2C)cc1	-2	-8	-3.7	i	5.4
COc1ccc(OC)c(NC(=O)C2(C)CCN2Cc2ccc(SC)cc2)c1 (centres undefined)	3	2	-1.3	i	2.6
COc1ccc(CN(C)C[C@H]2OCCCC[C@@H](C)Oc3ccc(NS(=O)(=O)c4cn(C)cn4)cc3C(=O)N([C@H](C)CO)C[C@@H]2C)cc1	0	-2	0.3	i	-9.2
SMILES	rRNA inh HTS	rRNA inh HTS OD600	rRNA inh HTS RFP	FGF22 binding	MLL AF4-AF9 inh
COCC(=O)Nc1ccc2c(c1)C(=O)N(C)C[C@@H](OC)[C@H](C)CN(Cc1ccccc1)[C@@H](C)CO2	-5	-10	0.4	i	2.8
Cc1noc(C)c1S(=O)(=O)Nc1ccc2c(c1)CC(=O)N([C@H](C)CO)C[C@@H](C)[C@H](CN(C)Cc1ccncc1)O2	2	1	-2.3	i	-3.6
CCNC(=O)C1(C)CCCN(Cc2ccc(-n3ccnc3)cc2)C1 (centres undefined)	-1	-1	0.0	i	0.7
CCCC(=O)Nc1ccc2c(c1)OC[C@H](C)N(CC1CCOCC1)C[C@H](C)[C@@H](OC)CN(C)C2=O	-1	-4	-2.1	i	-2.8
C[C@@H]1CCCCO[C@@H](CN(C)CC2CCCCC2)[C@@H](C)CN([C@H](C)CO)C(=O)c2cc(NC(=O)Cc3ccccc3)ccc2O1	5	0	-1.4	i	-0.5
COc1ccc(S(=O)(=O)N(C)C[C@H]2Oc3ccc(NS(=O)(=O)c4ccc(F)cc4)cc3CC(=O)N([C@H](C)CO)C[C@H]2C)cc1	-4	-7	1.3	i	0.2
C[C@H](CO)N1C[C@H](C)[C@H](CN(C)Cc2cncnc2)Oc2cc(C3=CCCCC3)ccc2S1(=O)=O	4	13	-0.5	i	3.7
O=C(Nc1ccc(F)cc1)N1CCCCN2[C@H](CO)[C@H](c3ccc(C#Cc4ccccc4)cc3)[C@H]2C1	-61	-72	-13	i	2.3
OC(c1ccccc1)(c1ccccc1)C1CCN(CCCOc2ccncc2)CC1	-54	-76	-10	i	8.3
COCOCCn1cc(CN2CCS(=O)(=O)N(Cc3ccc(-c4ccc(C)cc4)cc3)C(C(C)C)C2=O)nn1 (centres undefined)	2	5	0.3	i	2.3
C[C@@H]1CN([C@H](C)CO)C(=O)c2cc(NC(=O)CCC(F)(F)F)ccc2O[C@H]1CN(C)Cc1ccc(Oc2ccccc2)cc1	-3	-46	23	i	6.1
C[C@H]1CN([C@@H](C)CO)C(=O)c2cccc(NS(=O)(=O)c3ccc(F)cc3)c2O[C@H]1CN(C)C(=O)NC1CCCCC1	-5	4	-0.4	i	-1.8
C[C@@H]1CN([C@H](C)CO)C(=O)Cc2cc(NS(=O)(=O)c3ccc(F)cc3)ccc2O[C@H]1CN(C)S(=O)(=O)c1cccs1	-4	-1	1.6	i	0.6
C[C@H](CO)N1C[C@H](C)[C@H](CN(C)C(=O)Nc2ccccc2)Oc2ccc(NS(C)(=O)=O)cc2C1=O	3	5	-3.4	i	-10
CO[C@H]1CN(C)C(=O)c2cc(NC(C)=O)ccc2OC[C@H](C)N(Cc2cc(F)ccc2F)C[C@@H]1C	1	-4	1.9	i	-0.3
O=C(CC1CC1)N1CC[C@H]2[C@H](CO)Nc3ccc(-c4cccc(F)c4)cc3[C@H]21	-19	-56	-0.5	i	3.0
C[C@H](CO)N1C[C@H](C)[C@@H](CN(C)C(=O)Nc2ccc(F)cc2)Oc2c(NC(=O)c3ccncc3)cccc2C1=O	5	4	-1.4	i	-9.4
COCC(=O)N1CCCCN2[C@H](C1)[C@@H](c1ccc(C#Cc3cccnc3)cc1)[C@@H]2CO	-1	2	-0.8	i	-5.4
CCC(=O)N1C[C@@H](O)COC[C@H]2O[C@@H](CC(=O)N3CCCCC3)CC[C@@H]21	4	7	0.5	i	-2.3
CN(C)C(=O)[C@H]1[C@H](CO)[C@H]2Cn3c(ccc(C4=CCCCC4)c3=O)[C@@H]1N2Cc1ccccc1F	-4	-11	-3.0	i	5.7
O=C(C[C@@H]1CC[C@@H]2[C@H](COC[C@H](O)CN2Cc2ccc(Cl)cc2)O1)NCCc1ccccc1	-5	-16	4.2	i	-0.5
O=C(CC1CC1)Nc1ccc2c(c1)[C@H]1C[C@H](CC(=O)NC3CCCCC3)O[C@H](CO)[C@H]1O2	-3	0	-1.4	i	-1.3
CCOC(=O)N(C)c1c(CC)nc2c(OCc3cc(Cl)cc(Cl)c3)cccn12	-60	-71	-12	i	2.1
COc1cccc(NC(=O)N[C@@H]2C=C[C@@H](CC(=O)NCc3ccncn3)O[C@@H]2CO)c1	0	0	-0.5	i	-6.5
COc1ccc(S(=O)(=O)N(C)C[C@H]2OCCCC[C@@H](C)Oc3ccc(NC(=O)C4CCCCC4)cc3C(=O)N([C@H](C)CO)C[C@H]2C)cc1	-3	-3	1.3	i	-0.5
SMILES	rRNA inh HTS	rRNA inh HTS OD600	rRNA inh HTS RFP	FGF22 binding	MLL AF4-AF9 inh
O=C(Nc1ccc2c(c1)[C@H]1C[C@@H](CC(=O)N3CCCCC3)O[C@H](CO)[C@H]1O2)C1CCC1	0	-3	0.1	i	1.7
COc1ccc(NC(=O)N(C)C[C@@H]2Oc3ccc(NS(=O)(=O)c4c(C)noc4C)cc3CC(=O)N([C@H](C)CO)C[C@@H]2C)cc1	-2	0	-0.8	i	-15
C[C@@H]1CCCCO[C@@H](CN(C)C(=O)Cc2ccccc2)[C@H](C)CN([C@H](C)CO)C(=O)c2cc(NS(=O)(=O)c3ccccc3)ccc2O1	-4	-13	1.9	i	-1.8
CC(=O)N[C@H]1C=C[C@@H](CC(=O)NCC2CCCCC2)O[C@@H]1CO	3	6	-0.1	i	0.6
C[C@H]1CN([C@@H](C)CO)C(=O)Cc2cc(N(C)C)ccc2O[C@@H]1CN(C)Cc1ccc(C(=O)Nc2ccccc2N)cc1	0	2	-1.6	i	5.6
CC(Oc1ccccc1Cl)C(=O)Nc1ccc(S(=O)(=O)N2CCOCC2)cc1 (centres undefined)	1	3	1.1	i	-2.0
CCCNC(=O)N1C[C@@H](C)[C@@H](OC)CN(C)C(=O)c2cc(NS(=O)(=O)CC(F)(F)F)ccc2OC[C@H]1C	0	1	0.9	i	-2.7
COc1cc(-c2cc(NC=O)c3ncc(-c4ccc(F)cc4)n3c2)cc(OC)c1OC	-10	-6	27	i	1.9
O=C(NCc1ccccc1)[C@@H]1CCCN1C(=O)[C@H]1CCCN1C(=O)c1cccc2ccccc12	-11	-27	17	i	-2.4
Cc1ccc(S(=O)(=O)N(C)C[C@@H]2Oc3ccc(NC(=O)CCCCCC(=O)Nc4ccccc4N)cc3CC(=O)N([C@@H](C)CO)C[C@@H]2C)cc1	-2	-1	-0.1	i	1.8
OC[C@H]1[C@@H](c2ccc(-c3ccc(F)cc3)cc2)[C@H]2CN(Cc3cccnc3)CCCCN21	4	-4	0.9	i	15
COc1ccccc1NC(=O)N[C@@H]1CC[C@@H](CCNS(=O)(=O)c2ccc(F)cc2)O[C@H]1CO	-4	-5	0.3	i	0.6
CCCN1C[C@H](C)[C@H](OC)CN(C)C(=O)c2cc(NS(=O)(=O)c3ccccc3)ccc2OC[C@H]1C	1	12	0.0	i	-2.1
NCC[C@H]1CC[C@@H](NC(=O)NC2CCCCC2)[C@H](CO)O1	1	7	-0.3	i	1.0
C[C@H](CO)N1C[C@H](C)[C@@H](CN(C)Cc2ccc(C(=O)Nc3ccccc3N)cc2)Oc2ccc(NC(=O)Cc3ccccc3)cc2CC1=O	-4	-3	-3.7	i	-3.2
O=C(CCn1cccn1)N1CCCC(Nc2ccc(F)c(F)c2)C1 (centres undefined)	6	23	1.5	i	-1.5
C[C@H](CO)N1C[C@H](C)[C@@H](CN(C)C(=O)Nc2cccc3ccccc23)Oc2ccc(NC(=O)c3ccncc3)cc2C1=O	4	8	0.7	i	-3.4
COc1ccc(CN(C)C[C@@H]2Oc3c(NC(=O)Nc4ccc(F)cc4)cccc3C(=O)N([C@@H](C)CO)C[C@@H]2C)cc1	2	5	0.1	i	2.6

Of the compounds above, 9 have an aryl methoxy group.
SMILES	rRNA inh HTS	rRNA inh HTS OD600	rRNA inh HTS RFP	FGF22 binding	MLL AF4-AF9 inh
COc1ccc(OC)c(NC(=O)C2(C)CCN2Cc2ccc(SC)cc2)c1 (centres undefined)	3	2	-1.3	i	2.6
COc1ccc(CN(C)C[C@H]2OCCCC[C@@H](C)Oc3ccc(NS(=O)(=O)c4cn(C)cn4)cc3C(=O)N([C@H](C)CO)C[C@@H]2C)cc1	0	-2	0.3	i	-9.2
COc1ccc(S(=O)(=O)N(C)C[C@H]2Oc3ccc(NS(=O)(=O)c4ccc(F)cc4)cc3CC(=O)N([C@H](C)CO)C[C@H]2C)cc1	-4	-7	1.3	i	0.2
COc1cccc(NC(=O)N[C@@H]2C=C[C@@H](CC(=O)NCc3ccncn3)O[C@@H]2CO)c1	0	0	-0.5	i	-6.5
COc1ccc(S(=O)(=O)N(C)C[C@H]2OCCCC[C@@H](C)Oc3ccc(NC(=O)C4CCCCC4)cc3C(=O)N([C@H](C)CO)C[C@H]2C)cc1	-3	-3	1.3	i	-0.5
COc1ccc(NC(=O)N(C)C[C@@H]2Oc3ccc(NS(=O)(=O)c4c(C)noc4C)cc3CC(=O)N([C@H](C)CO)C[C@@H]2C)cc1	-2	0	-0.8	i	-15
COc1cc(-c2cc(NC=O)c3ncc(-c4ccc(F)cc4)n3c2)cc(OC)c1OC	-10	-6	27	i	1.9
COc1ccccc1NC(=O)N[C@@H]1CC[C@@H](CCNS(=O)(=O)c2ccc(F)cc2)O[C@H]1CO	-4	-5	0.3	i	0.6
COc1ccc(CN(C)C[C@@H]2Oc3c(NC(=O)Nc4ccc(F)cc4)cccc3C(=O)N([C@@H](C)CO)C[C@@H]2C)cc1	2	5	0.1	i	2.6
